NPYLR7 ag – mosquito NPYLR7 agonism | HEK293T NPYLR7/Galpha15, GCaMP6s calcium fluorescence | activation, % at 10 µM | 0.15% of 270,000 active | AID 1259423; in the data active = activation above about 40%;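 also: 0% = vehicle and 100% = reference agonist at the receptor; some compounds past the cut are filed as inactive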
NPYLR7 ag max-min – also measured in NPYLR7 ag; calls as there; activation, %; measured here: Max-Min RFU normalised activation; some inactives read as strong as hits;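 span of the calcium signal over five minutes; 0% = vehicle and 100% = native peptide agonist; compound fluorescence can raise it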
* = called active by the depositor; & = joins results of further samples. These rows are one share of the data. The share of hits here may be higher or lower than overall.

SMILES | NPYLR7 ag max-min | NPYLR7 ag
Cc1nc(COC(=O)c2cccn2C)n[nH]1 | 3 | 4
Cc1ccc(Cn2ccnc2CN(C(=O)c2ccc(Cl)cc2)C(C)C)cc1 | 3 | 2
CN1N=C(c2ccc3c(c2)NC(=O)CO3)CC1c1cccc(C#N)c1 (stereo not given) | 0&0 | 1&3
Cc1nc(SCc2ccc(C(=O)NCc3ccncc3)cc2)nc(N2CCN(c3ccccc3F)CC2)c1C | 8 | 4
O=C1c2ccc(-c3nc4ccccc4c(=O)o3)cc2C(=O)N1CC1CCCO1 (stereo not given) | -15 | -11
CSCCCN1CCC2(CCCN(Cc3ccc(F)c(F)c3)C2)C1 (stereo not given) | -2 | 3
CC1(C(=O)NS(=O)(=O)c2ccc(F)cc2F)CCN1C(=O)CCc1ccc(Cl)cc1Cl (stereo not given) | -2 | 3
O=C(NCCCN1CCOCC1)C(C1CCCC1)N1CCN(C(=O)/C=C/c2ccccc2)CC1 (stereo not given) | 7 | 7
O=C(NCc1ccco1)NNc1nc2c(-c3ccccc3)nnn2c2ccccc12 | -16 | -9
Cc1ccc(C)c(C2=Nn3c(nnc3C3CCCCC3)SC2C)c1 (stereo not given) | -1 | 0
Cc1c(C)c(C(=O)N2CCN(c3ccccc3F)CC2)n(Cc2ccc(F)c(F)c2)c1C | 30 | 18
COC(=O)C1=CN(C)C=C(C(=O)OC)C1c1cccs1 | -5 | -4
COc1ccc(C(C)Nc2snc(Cl)c2C#N)cc1OC (stereo not given) | -20 | -16
Cc1cc(C)c(S(=O)(=O)NCCCN2CCOCC2)cc1C | 12 | 11
COc1ccc(CNS(=O)(=O)c2ccc3[nH]cc(C(=O)O)c(=O)c3c2)cc1 | -11 | -5
COc1ccccc1C1CC(c2ccc(C)cc2)=NN1S(C)(=O)=O (stereo not given) | 15 | 11
Cc1ccc(-n2c(SCCCC(=O)N3CCN(C(=O)c4cc(C(F)(F)F)cc(C(F)(F)F)c4)C(C)C3)nnc2-c2ccco2)cc1 (stereo not given) | -2 | -6
CCCCCCCOc1ccc(C2=N/C(=C\C=C\c3ccccc3)C(=O)O2)cc1 | -6 | -1
COCc1[nH]n2c(=O)c(Cl)c(C)nc2c1-c1ccc(C)cc1 | -24 | -15
CC1CCCC(Nc2ccccn2)C1 (stereo not given) | 9 | 11
Cc1ccc(C)c(NC(=O)CSc2cn(CC(=O)N3CCOCC3)c3ccccc23)c1 | -7 | -2
CC1CCCCN1C1CN(c2nccc(CCC(F)(F)F)n2)C1 (stereo not given) | -11 | -7
COc1ccc(-c2ccc(C(=O)NCCc3ccc(Cl)cc3Cl)s2)c(OC)c1OC | 14 | 24
O=S(=O)(c1ccc(F)c(Cl)c1)N1CCN(c2c(-c3ccccc3)cnc3ncnn23)CC1 | -7 | -3
CC1CCN(C(=O)CCc2nc(-c3ccc(F)cc3)no2)CC1 | -2 | -1
COc1ccccc1C(NC(=O)C1CCN(CCN2C(=O)c3ccccc3C2=O)CC1)c1ccccn1 (stereo not given) | 7 | 4
CCOC(=O)c1c(CN2CCOCC2)n(C)c2cc(Br)c(OC(C)=O)cc12 | 2 | 0
Cc1ccc(NC(=O)CSc2nc3c(c(=O)[nH]2)CN(Cc2ccccc2)CC3)cc1 | 2 | 3
CCCCn1nc(C(=O)N2CCN(C(=O)c3ccco3)CC2)c2ccccc2c1=O | 1 | 3
O=C(NCC(=O)N1CCC(O)(c2ccccc2)CC1)C1CC1(c1ccccc1)c1ccccc1 (stereo not given) | -18 | -11
O=C(C1CCOCC1)N1CCCC(CCc2cccc(C(F)(F)F)c2)C1 (stereo not given) | -7 | -2
O=C(NC1CC1)c1csc(COc2ccc([N+](=O)[O-])cc2)n1 | 10 | 3
O=C(O)c1cc([N+](=O)[O-])ccc1NCCCc1ccccc1 | -45 | 2
CC(=O)NC1C(=O)CC(C)(C)CC1=O | 1 | 3
COC(=O)C(c1cccc(C#N)c1)N1CCC(CSC)C1 (stereo not given) | 3 | 6
CC1(C)CC(CN2CC(c3ccncc3)C2)CCO1 (stereo not given) | -11 | 5
O=C(O)c1cc(N=Nc2c(O)ccc3ccccc23)cc(C(=O)O)c1 | -1 | -1
CCC(C(=O)N1CCN(c2cc(C)nc(-c3cccc(F)c3)n2)CC1)c1ccccc1 (stereo not given) | -3 | -3
CCC(O)CN(c1ccccc1)S(=O)(=O)c1c(Cl)nc2ccccn12 (stereo not given) | 0 | 1
Fc1cccc(CN2CCN(Cc3cccc(-c4ccccn4)c3)CC2)c1 | -7 | -5
CCOC(=O)c1c(NC(=O)Cn2cnc([N+](=O)[O-])n2)sc2c1CCC(C(C)(C)C)C2 (stereo not given) | -21 | -15
Clc1ccc2nc(N/N=C\c3cc4c(cc3Br)OCCO4)nc(-c3ccccc3)c2c1 | -4 | -1
Cc1cc(C(C)(C)C)cc(C)c1CN1C(=O)NC(C)(C)C1=O | -1 | -1
O=C(NCc1nccn1CCc1ccccc1)N1CCSCC1 | -27 | -24
COc1ccc(SCCCC(=O)Nc2ncnc3sccc23)cc1 | 2 | 1
O=[N+]([O-])c1cc(C=NN2CCN(c3ccccc3)CC2)ccc1Cl | -4 | -2
CC(CC(=O)OCc1ccccc1)n1ccnc1 (stereo not given) | 4 | 7
Cn1cc(/C=C/C(=O)N2CCC3(CCCN(CCc4ccccc4)C3)C2)cn1 (stereo not given) | 0 | 3
Cc1ccc(C)c(C2=NN(C(=O)CN3CCOCC3)C(c3cccc(F)c3)C2)c1 (stereo not given) | 4 | -1
O=C1CCCCC1C1(O)C(=O)Nc2ccc(Br)cc21 (stereo not given) | 2 | 3

Sorted by number of heavy atoms (largest number first): part of the list above
SMILES | NPYLR7 ag max-min | NPYLR7 ag
Cc1ccc(NC(=O)CSc2nc3c(c(=O)[nH]2)CN(Cc2ccccc2)CC3)cc1 | 2 | 3
O=C(C1CCOCC1)N1CCCC(CCc2cccc(C(F)(F)F)c2)C1 (stereo not given) | -7 | -2
COc1ccc(SCCCC(=O)Nc2ncnc3sccc23)cc1 | 2 | 1
O=C(O)c1cc([N+](=O)[O-])ccc1NCCCc1ccccc1 | -45 | 2
CC(=O)NC1C(=O)CC(C)(C)CC1=O | 1 | 3

(further entries)
SMILES | NPYLR7 ag max-min | NPYLR7 ag
COC(=O)CC(=O)N[C@H](Cc1ccccc1)C(=O)N1CCC(C(=O)N2CCCCC2)CC1 | 11 | -5
O=C(Oc1coc(CSc2ncccn2)cc1=O)c1ccc(S(=O)(=O)N2CCOCC2)cc1 | -6 | -12
CCc1ccc(CC(=O)N(Cc2cccnc2)c2nc3ccccc3s2)cc1 | -18 | -14
CCOC1CC1C(=O)Nc1ccccc1NC1CCN(C)CC1 (stereo not given) | -10 | 6
CCN(CC)C(=O)CSc1ncnc2c1nnn2Cc1ccc(F)cc1 | 17 | 7
O=C(NCCc1ccccc1)N1CCN(C(c2ccccc2)c2ccccc2)CC1 | 7 | 6
CC(C)COc1nc(-c2ccc3c(c2)OCO3)n(-c2ccc(NC(=O)Cc3cccs3)cc2)n1 | 13 | 16
CCOC(=O)C(CC)Sc1ccc2nnc(CCNC(=O)c3ccc(F)cc3)n2n1 (stereo not given) | -7 | 3
CCC(C)(C)NC(=O)Cn1nnc(CN(C)C(=O)c2ccccc2)n1 | -2 | -1
CCC(=O)N1CCC1(C)C(=O)NCc1ccccc1SC (stereo not given) | 6 | 7
COC(=O)c1sc(N)c(C(=O)OC)c1COC(=O)C1CC2CCCC(C1)C2=O (stereo not given) | 0 | 2
COCCN1CCCC(NS(=O)(=O)c2cccc(C(C)=O)c2)C1 (stereo not given) | -16 | 1
CC(C)(c1ccccc1)c1ccc(OCCCCn2cncn2)cc1 | 0 | 1
c1cnc(N2CCCC(NCc3cccc(OC4CCCC4)c3)C2)nc1 (stereo not given) | -4 | 3
Cc1ccc(Cc2nsc(Oc3ccc(CC(=O)NCCc4ccccc4)cc3)n2)cc1 | 30 | 24
CN(Cc1nnc2ccccn12)c1ncc(C#N)cc1Cl | -8 | -3
CNC(=O)NC(=O)CSc1nnc(SCC(=O)NC(=O)NC)s1 | -6 | -5
CC1C(=O)N(c2ccc3c(c2)OCO3)CCN1C(=O)COc1ccc(Cl)cc1 (stereo not given) | 14 | 21
Cc1ccc(NC(=O)c2ccccc2OCc2cccc(C)c2)nc1 | -8 | -8
CC1=C(C(=O)OCCc2ccccc2)C(c2ccc3c(c2)OCO3)NC(=O)N1C (stereo not given) | 0 | 2
Cc1ccc(OCC(=O)c2ccc3c(c2)N(CCCC(=O)O)C(=O)CO3)cc1C | 13 | 22
O=C(NCc1ccc2c(c1)OCO2)c1csc(CSc2nnc(-c3ccccc3Cl)n2-c2cccc(Cl)c2)n1 | 25 | 18
Cn1nc(C(C)(C)C)cc1NC(=O)C1(C)CCN1C(=O)C/C=C/c1ccccc1 (stereo not given) | 10 | 9
N#Cc1ccc(Oc2ccc(Br)cc2F)nc1 | 4 | 13
COC(=O)[C@H]1C[C@@H](O)CCN1CC=C(C)C | 0 | -1

Record cards, as listed above. Screens in order: NPYLR7 ag max-min | NPYLR7 ag
Shown for CC(C)COc1nc(-c2ccc3c(c2)OCO3)n(-c2ccc(NC(=O)Cc3cccs3)cc2)n1 : 13 | 16
Shown for O=C(Oc1coc(CSc2ncccn2)cc1=O)c1ccc(S(=O)(=O)N2CCOCC2)cc1 : -6 | -12
Shown for CC1C(=O)N(c2ccc3c(c2)OCO3)CCN1C(=O)COc1ccc(Cl)cc1 (stereo not given) : 14 | 21
Shown for Cc1ccc(OCC(=O)c2ccc3c(c2)N(CCCC(=O)O)C(=O)CO3)cc1C : 13 | 22

The list continues.
SMILES | NPYLR7 ag max-min | NPYLR7 ag
CO[C@H]1CN(c2ncnc3[nH]ccc23)CC[C@H]1N | -2 | -1
CC1(C)O[C@@H]2C[C@@](OCc3ccccc3F)(C(=O)NC3CC3)CC(OCc3ccccc3C#N)[C@@H]2O1 (stereo not given in full) | 5 | 5
COc1ccc(C(=O)C2CCN(C(=O)c3cc(C(C)=O)cn3C)CC2)cc1 | 19 | 2
CCCCC(=O)Nc1ccc(N2CCCC2)c(C(=O)NC2CCCCC2)c1 | 12 | 7
Cc1ccccc1NC(=O)Nc1ccc(-n2nc(OCC(C)C)nc2-c2ccccc2F)cc1 | 15 | 7
CCOc1ccccc1OCC(=O)N1CCN(S(=O)(=O)c2c(C)noc2C)CC1 | -4 | -6
Cc1ccccc1C(=O)NCC(=O)N1CCN(C(=O)c2ccccc2C(F)(F)F)CC1 | 2 | 2
CCOC(=O)CC(=O)N1CCC(n2cnc3ccccc32)CC1 | 1 | 2
Cc1ccc(Br)cc1S(=O)(=O)Nc1cccc(S(N)(=O)=O)c1 | 5 | 1
Cn1cc(C(=O)Nc2cccnc2)c2nn(-c3ccccc3)c(=O)c-2c1 | 7 | 7
CCN(Cc1nc(COC)no1)C(=O)c1ccc(F)cc1OC | 10 | 12
COc1ccc(C(=O)Nc2cc(C(=O)N3CCCC3)cn(C)c2=O)c(OC)c1 | -7 | -5
COC1CCC(N(C)C(=O)c2ccn(-c3ccc(F)cc3)n2)CC1 (stereo not given) | 1 | 5
CCCNS(=O)(=O)c1cccc(C(=O)Nc2cccc(F)c2)c1 | -3 | -3
COc1ccc2cc(CN(C)Cc3cc(=O)n4cc(Br)ccc4n3)ccc2c1 | 7 | 7
O=C(NC(Cc1ccccc1)C(=O)N1CCN(CC(=O)N2CCCC2)CC1)c1ccccc1 (stereo not given) | 3 | 4
O=C1CSC(=O)N1C/C=C/CN1C(=O)CSC1=O | 1 | 4
CC1CCCN(c2nc3c(c(=O)[nH]c(=O)n3C)n2CCCc2ccccc2)C1 (stereo not given) | 3 | 7
COc1ccc(OC)c(-c2cc(C(=O)NC(C)C(=O)N3CCOCC3)no2)c1 (stereo not given) | 5 | 8
Cc1cccc(OCc2ccc(-c3nc(C#N)c(NCc4ccc5c(c4)OCO5)o3)o2)c1 | 38 | 0
COc1ccc2[nH]c3c(c2c1)CCN(C(=O)c1ccc([N+](=O)[O-])o1)C3c1ccccc1OC (stereo not given) | 1 | 13
O=C(Nc1nc2c(ccc3ccccc32)s1)c1ccc(N2C(=O)CCC2=O)cc1 | 5 | 0
Cc1ccc(-n2c(SCc3ccccc3)nnc2C(Cc2ccccc2)NC(=O)C2C[C@H]2c2ccccc2)cc1 (stereo not given in full) | 18 | 15
NC(=N/N=C\c1ccccc1)c1nonc1N | -25 | -16
CCc1nc2ccc(C(=O)N3CCN(C(=O)c4ccco4)CC3)cn2c1N(C)Cc1cccs1 | -12 | -2

Molecules shown so far that have two or more sulfur atoms (6):
SMILES | NPYLR7 ag max-min | NPYLR7 ag
COc1ccc(SCCCC(=O)Nc2ncnc3sccc23)cc1 | 2 | 1
O=C(Oc1coc(CSc2ncccn2)cc1=O)c1ccc(S(=O)(=O)N2CCOCC2)cc1 | -6 | -12
CNC(=O)NC(=O)CSc1nnc(SCC(=O)NC(=O)NC)s1 | -6 | -5
O=C(NCc1ccc2c(c1)OCO2)c1csc(CSc2nnc(-c3ccccc3Cl)n2-c2cccc(Cl)c2)n1 | 25 | 18
Cc1ccc(Br)cc1S(=O)(=O)Nc1cccc(S(N)(=O)=O)c1 | 5 | 1
O=C1CSC(=O)N1C/C=C/CN1C(=O)CSC1=O | 1 | 4

(listing goes on)
SMILES | NPYLR7 ag max-min | NPYLR7 ag
COC(=O)C[C@H](NC(=O)N1CCc2[nH]cnc2C1c1ccccc1OC(F)(F)F)C(=O)OC (stereo not given in full) | -10 | -3
COc1ccc(C(=O)NCCN=C2NS(=O)(=O)c3ccccc32)cc1 | -3 | -1
Cc1c(C(=O)NCC(=O)NC2CC2)oc2ccc(F)cc12 | 2 | 5
O=c1c2cnc3ncnn3c2ccn1-c1ccc(Cl)cc1 | 5 | 5
Cc1ccc(C(=O)NCCn2cc(SC(=N)N)c3ccccc32)cc1 | -14 | -9

Screening data from PubChem BioAssay.
